Assay outcomes as filed in PubChem.
Mtb growth: M. tuberculosis H37Rv growth inhibitors, H37Rv strain (AID 1626). M. tuberculosis H37Rv growth inhibition; higher % means a stronger effect. actives 0.95% (n = 220,000). one-dose inhibition, % at 10 µM; IC50 in µM for titrated hits;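 active = confirmed in a dose series; inconclusive = inhibition above 80% but not taken into the dose series; inactive = below 80% or under 30% at every dose of the series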;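 also: bacteria incubated seven days before Alamar blue readout; 0% = bacteria only wells and 100% = bacteria with antibiotic wells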
Mtb betalactam: beta-lactam sensitization of Mtb H37Rv, H37Rv; actives 0.27% (n = 330,000); inhibition, % at 25 µM; M. tuberculosis H37Rv growth with meropenem, percent inhibition; hits of this screen are not shown here;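 active = about 74% or more and at least 40 points above the plate without the antibiotic, then above 30% in a dose series; inconclusive = first-round hits that could not be retested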;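 also: growth measured after seven days incubation then overnight dye step; 0% = bacteria only wells and 100% = bacteria with antibiotic; twin plates without the antibiotic show which effects depend on it; some results filed as inactive read as strong as hits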
RecA splice inh: Mtb RecA intein splicing inhibitors, primary screen, biochemical, fluorescence, HTS; Protein RecA (Mycobacterium tuberculosis (strain ATCC 25618 / H37Rv)), P9WHJ3; cell-free RecA intein splicing; inhibition, %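 (about 9 µM by stock and volumes)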; actives 0.75% (n = 290,000); AID 2221, 2009; in the data active = inhibition above about 30%; inconclusive = no clear call, values can overlap the other calls;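 also: 0% = vehicle wells and 100% = reference inhibitor control wells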
Target sequence (P9WHJ3 whole entry, looked up, canonical isoform): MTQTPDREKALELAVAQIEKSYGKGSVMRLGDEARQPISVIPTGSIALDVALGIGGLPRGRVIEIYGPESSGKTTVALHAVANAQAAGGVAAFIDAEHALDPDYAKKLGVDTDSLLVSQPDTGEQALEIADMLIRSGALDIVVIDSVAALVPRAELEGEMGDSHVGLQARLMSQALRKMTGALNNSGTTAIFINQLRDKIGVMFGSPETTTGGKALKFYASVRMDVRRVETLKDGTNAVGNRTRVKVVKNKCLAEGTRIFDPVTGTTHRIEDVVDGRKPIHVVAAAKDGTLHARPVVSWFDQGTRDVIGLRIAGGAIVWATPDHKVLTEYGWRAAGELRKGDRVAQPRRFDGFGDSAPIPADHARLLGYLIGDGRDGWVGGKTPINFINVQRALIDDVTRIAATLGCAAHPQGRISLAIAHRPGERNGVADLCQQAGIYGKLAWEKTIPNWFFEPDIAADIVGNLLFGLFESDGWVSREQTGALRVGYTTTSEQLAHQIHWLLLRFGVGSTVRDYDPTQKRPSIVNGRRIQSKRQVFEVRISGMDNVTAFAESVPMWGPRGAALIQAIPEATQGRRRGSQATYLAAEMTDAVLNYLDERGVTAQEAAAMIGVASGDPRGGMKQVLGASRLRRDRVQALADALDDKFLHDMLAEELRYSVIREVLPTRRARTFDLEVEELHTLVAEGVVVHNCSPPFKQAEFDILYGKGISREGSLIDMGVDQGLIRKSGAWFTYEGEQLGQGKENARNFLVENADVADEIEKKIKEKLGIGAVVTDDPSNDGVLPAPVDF
Arbovirus inh: antivirals against arbovirus infection, primary screen, cell-based, full library, 10K replicate subset; arbovirus infection cell-based antiviral screen; inhibition, % at 10 µM; actives 0.37% (n = 200,000); AID 1251, 2008;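 active = inhibition from about 30%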;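 also: bluetongue infection of BSR cells; cell survival read as ATP light after 72 h; 0% = infected wells without compound and 100% = uninfected wells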
YopH PTP inh: YopH tyrosine phosphatase inhibitors, primary screen, biochemical, fluorescence Ex485/Em525 | inhibition, %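 (about 10 µM by stock and volumes)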 | actives 0.16% (n = 140,000);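 active = inhibition of 50% or more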;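 also: controls were vehicle for no effect and minimum signal wells for full effect; inactives centre near -20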
Arbovirus inh repeat: further read-out of Arbovirus inh, marked with its call; inhibition, %; measured here: 10K subset replicate screen; many hits read low in the repeat;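 first of two repeat runs on a subset; 0% = infected and 100% = uninfected wells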
An asterisk follows results filed as active; ? = inconclusive; . = no result given. These rows are one share of the data; the hit share may differ from the screen's.

SMILES | Mtb growth | Mtb betalactam | RecA splice inh | Arbovirus inh | YopH PTP inh | others
COCCCNC(=O)Cn1c(=O)n(CCCCCC(=O)Nc2ccccc2)c(=O)c2sccc21 | 0% | 0 | -5.0 | 4 | -12
O=C(Nc1cc(C(=O)N2CCCC2)ccc1N1CCCC1)C1CC1 | -1% | -12 | -2.0 | -2 | -25
CCOC(=O)c1cnn(CCOC(=O)C(C)(C)C)c1NC(=O)C(C)(C)C | 2% | -4 | 0.2 | 3 | -7
NN(Cc1ccccc1)C(=S)Nc1ccc(Cl)c(Cl)c1 | . | 82 | 14 | . | .
COc1ccc(CC(=O)Nc2ccc(S(=O)(=O)Nc3onc(C)c3C)cc2)cc1OC | . | 7 | -1.5 | . | .
N#C/C(C(=O)N1CCCCC1)=C1/N=C(N)c2ccccc21 | -4% | 5 | 0.1 | -3 | -32
COC(=O)COc1ccc(S(=O)(=O)N2CCCCCC2)cc1C | . | -6 | 0.9 | . | .
CCOC(=O)c1nn(-c2cccc(Cl)c2)c(C)c1C(C)=O | 1% | ? | -4.9 | -3 | -26
O=C(Nc1ccc(F)cc1)c1ccc(S(=O)(=O)NCc2cccnc2)cc1 | . | -10 | 1.9 | . | .
O=c1[nH]c2ccccc2s1 | -4% | -6 | 2.6 | -1 | -16
COC(=O)C1=C(c2cc3ccccc3s2)C[C@@H]2CC[C@H]1N2C(=O)NCc1ccccc1 | 1% | -3 | 9.3 | . | .
CCOC(=O)c1nc(Nc2cccc(C)c2)c2ccccc2n1 | 1% | 5 | 0.8 | 18 | .
O=C1CSC(c2ccccc2Cl)N1 (centres undefined) | -1% | -2 | -8.8 | 3 | .
COc1ccc(NC(=O)C(C)N2c3cccc4cccc(c34)S2(=O)=O)cc1 (centres undefined) | 1% | 2 | 0.8 | 6 | -24
CCOc1ccc(N/C(C)=C\C(=O)c2ccc3c(c2)OCCO3)cc1 | 5.9µM* | 98 | -0.6 | -2 | .
CN1CCN(C(=O)CSc2nc(-c3ccco3)cc(C(F)(F)F)n2)CC1 | -4% | 2 | 0.3 | -13 | .
COc1ccc(OCCCCn2c(CO)nc3ccccc32)cc1 | . | 31 | 0.3 | . | .
COc1cc(NC(=O)c2ccc(COc3ccccc3Br)o2)cc(OC)c1OC | 67% | 15 | . | -25 | -22
Cc1ccc2nc(SCC(=O)NC(=O)NCc3ccco3)[nH]c2c1 | 1% | 52 | 3.0 | 2 | -2
COc1ccc(OC)c(/C=C2\SC(N3CCCCC3)=NC2=O)c1 | . | -11 | -1.9 | . | .
COC(=O)c1cc(Br)c(=O)n(CCN2CCOCC2)c1 | 5% | 1 | 0.0 | 12 | -56
O=C(Nc1c(-c2ccccc2)nc2ccccn12)c1ccccc1F | . | -5 | -0.4 | . | .
O=C(Nc1ccccn1)c1ccc(S(=O)(=O)N2CCCCC2)cc1 | . | -2 | -1.6 | . | .
Cc1ccc(NC(=O)c2oc3ccccc3c2C)nc1 | . | 39 | -0.4 | . | .
COc1ccnc(-n2cccc2C#N)c1C#N | -2% | -1 | . | -2 | .
Cc1cc(C)n(C(=O)CCN2C(=O)c3ccccc3C2=O)n1 | -9% | -2 | 1.9 | 0 | -4 | Arbovirus inh repeat=4
O=C(CCS(=O)(=O)c1ccc(Br)s1)NCc1ccc2c(c1)OCO2 | -5% | 0 | 1.3 | 2 | -39
COc1cc(/C=N/OCC(=O)NC23CC4CC(CC(C4)C2)C3)ccc1OCc1ccccc1 | 22% | 1 | 20 | -26 | -15
C=C1CC[C@@H]2[C@](C)(CO)[C@H](O)CC[C@@]2(C)[C@@H]1/C=C/C1=CCOC1=O | . | 0 | 0.1 | . | .
CCOC(=O)c1sc(NC(=O)CSc2nc3ccccc3s2)c(C(=O)OCC)c1C | -17% | 11 | -0.6 | 6 | 5
Cc1nc(-c2ccc(C(=O)N3CCOCC3)cc2)cs1 | -3% | -6 | -3.4 | 0 | -34
COc1ccc(C(=O)Nc2nnc(C3=COCCO3)o2)cc1 | . | ? | 1.8 | . | .
O=C(CSCc1c[nH]c(=O)[nH]c1=O)OCC(=O)c1ccc(Br)cc1 | -7% | 7 | -0.9 | -1 | .
Cc1nnc(SC(C)C(=O)Nc2ccc(S(=O)(=O)NC3CCCCC3)cc2)s1 (centres undefined) | -16% | 4 | 0.4 | -4 | -6
O=C1C=CC(=O)N1Nc1ccc(Br)cc1 | 9% | 3 | -6.0 | -3 | -27
N#Cc1ccccc1OCC(=O)OCC(=O)N1CCN(C(=O)c2ccco2)CC1 | 2% | 1 | . | -1 | .
Cc1ccc(OC(C)C(=O)N2CC(=O)Nc3ccccc32)c(C)c1 (centres undefined) | . | -5 | 1.7 | . | .
Fc1ccc2nc(-c3ccccc3)nc(SCc3nnc(-c4ccccc4)o3)c2c1 | 0% | 10 | 0.3 | -1 | -4
CCOc1ccc(S(=O)(=O)NC(Cc2c[nH]c3ccccc23)C(=O)O)cc1 (centres undefined) | . | -3 | -0.1 | . | .
Cc1ccc(C(C(=O)NC(C)(C)C)N(Cc2ccco2)C(=O)CCC(=O)Nc2ccccn2)cc1 (centres undefined) | . | -6 | 2.9 | . | .
CCCCC(=O)NC1(C(F)(F)F)C(=O)N(CC(C)C)C2=C1C(=O)CC(C)(C)C2 (centres undefined) | -1% | 11 | . | 15 | -1
CCn1cc(C(=O)N2CCCc3ccccc32)c2cc(OC)c(OC)cc2c1=O | . | -8 | 4.1 | 5 | -39
COc1cccc(N=Nc2c(=O)[nH]n3c(C)cc(C)nc23)c1 | 9% | 10 | 4.8 | 2 | -38
CC(=O)N1[C@H](C)C=C[C@]1(Cc1ccccc1)C(=O)NCCN1CCOCC1 | -7% | 3 | -1.5 | . | .
CCOc1ccc(CCNC(=O)c2cc3sccc3n2CC)cc1OCC | -2% | 18 | 4.2 | -9 | -17
Cc1nn(C)c(Oc2cccc(Cl)c2)c1C(=O)Nc1ccc(F)cc1F | . | 2 | 1.9 | 2 | -24
O=C(NC12CC3CC(CC(C3)C1)C2)c1ccc(-c2ccccc2Cl)o1 | ? | 100 | 2.9 | -23 | -42
C=CCn1c(=O)c(C(=O)Nc2ncccc2O)c(O)c2ccccc21 | . | 4 | 2.0 | . | .
CCOC(=O)c1ccc2nc(NC(=O)c3ccco3)sc2c1 | . | 51 | 0.6 | 4 | 7
Cc1onc(-c2ccccc2)c1CNC(=O)Nc1ccc(F)cc1F | -3% | -8 | -1.3 | . | .
COc1ccc2nc(C)cc(N3CC(C)OC(C)C3)c2c1 (centres undefined) | -5% | -18 | 1.3 | 1 | -50
Cc1csc2nc(O)c(C(=O)NC3CCCCC3C)c(=O)n12 (centres undefined) | . | 1 | -109 | . | .
Cc1ccc(OCC(=O)N[C@@H](C)c2nnc3ccccn23)cc1C | . | 8 | 0.2 | . | .
Cc1nc(CC(=O)N2CCN(c3cccc(C)c3C)CC2)cs1 | -7% | ? | 2.6 | 4 | -21
COc1cccc(NC(=O)CSC2=C(C#N)C(c3ccco3)C3=C(CCCC3=O)N2)c1 (centres undefined) | 5% | -6 | 3.0 | -20 | -49
N#Cc1cnn2c(-c3ccccc3)ccnc12 | 3% | -4 | 0.7 | -3 | 0
COc1ccccc1C(=O)NC(=O)COC(=O)c1ccc(Cl)nc1 | . | -4 | 2.1 | . | .
CCOc1ccc(NC(=O)N(CCC(C)C)C(C)c2ccco2)cc1 (centres undefined) | . | 0 | 4.5 | -10 | -42
CN(CC(=O)Nc1cccc(S(=O)(=O)N2CCCC2)c1)CC(=O)Nc1ccc(Cl)c(C(F)(F)F)c1 | . | -4 | 8.9 | . | .
C=CCOC(=O)C1=C(C)NC(=O)NC1c1ccc(OC(=O)c2ccco2)c(OC)c1 (centres undefined) | -8% | -5 | 31* | 6 | -37 | Arbovirus inh repeat=1
(more compounds)
SMILES | Mtb growth | Mtb betalactam | RecA splice inh | Arbovirus inh | YopH PTP inh | others
CC12CCC(C(=O)N3CCCc4ccccc43)(OC1=O)C2(C)C (centres undefined) | -10% | 1 | -4.0 | -5 | -21
COc1cc2c(cc1OC)C(c1cccc(OC)c1OC)CC(=O)N2 (centres undefined) | -4% | -7 | -0.6 | 7 | -33
c1ccc(OCc2nnc(-c3ccccc3)o2)cc1 | 10% | . | -4.4 | -3 | .
O=C(CSc1nnc(Cc2cccs2)n1C1CCCCC1)N1CCN(C(=O)c2ccco2)CC1 | -4% | -4 | -2.0 | 13 | -49
CC(=O)Nc1ccc(NC(=O)C2CC(=O)N=C(N)S2)cc1 (centres undefined) | . | -10 | -0.7 | 0 | -1
COc1ccc(CNc2nc3nc(C)cc(C)n3n2)cc1OC | -1% | -12 | -19 | 8 | -10
O=C(c1ccoc1)N1CCC2(CCCN(Cc3ccc(F)c(F)c3)C2)C1 (centres undefined) | . | 10 | 0.2 | . | .
COc1ccc(-n2cnc3cc(N)ccc32)cc1 | 2% | -1 | 2.9 | -6 | -17
CCOC(=O)c1c(N)sc2c1CCS(=O)(=O)C2 | -7% | -12 | -0.3 | 3 | -34
CCN(CC(=O)Nc1ccccc1OC)C(=O)c1ccc(N(C)S(=O)(=O)c2ccc(C)cc2)cc1 | . | -6 | 5.0 | . | .
CCOc1ccc(-n2cc(-c3ccccc3)c3c(=O)[nH]cnc32)cc1 | 64% | -5 | -0.8 | -14 | .
Cc1cccc(C)c1NC(=O)CSCc1cccc(CSCC(=O)Nc2c(C)cccc2C)n1 | -11% | -1 | -1.8 | -10 | -7
CCN(Cc1ccccc1)Cc1cc(OC)cc(OC)c1 | -2% | 0 | . | -1 | -30
CC(C)(C)OC(=O)NNC(=O)Nc1ccccc1C(F)(F)F | 3% | -9 | -1.8 | 1 | .
CCN(CC)CC(=O)N(CC(=O)Nc1c(C)cc(C)cc1C)C1CCCCC1 | 4% | -3 | . | 3 | -7
COc1ccc(CC(=O)NCCC(C)C)cc1S(=O)(=O)N1CCOCC1 | 0% | -9 | 1.8 | -3 | .
CCc1ccc(-c2cn3c(n2)SCC3)cc1 | -4% | 3 | 0.3 | -12 | .
Cc1cc2[nH]c(=O)c(=O)[nH]c2cc1S(=O)(=O)Nc1cccc(F)c1 | . | -6 | -5.6 | . | .
Cc1ccccc1Nc1nc(N)nc(COC(=O)c2cccc(S(=O)(=O)N(C)C)c2)n1 | 1% | ? | -0.4 | 0 | -8
O=C(O)c1ccc(Sc2nnc(-c3cccc(Br)c3)o2)c([N+](=O)[O-])c1 | -11% | -18 | 9.8 | -2 | -22

An excerpt from above in order of molar mass, ascending:
SMILES | Mtb growth | Mtb betalactam | RecA splice inh | Arbovirus inh | YopH PTP inh | others
CCc1ccc(-c2cn3c(n2)SCC3)cc1 | -4% | 3 | 0.3 | -12 | .
COc1ccc(-n2cnc3cc(N)ccc32)cc1 | 2% | -1 | 2.9 | -6 | -17
c1ccc(OCc2nnc(-c3ccccc3)o2)cc1 | 10% | . | -4.4 | -3 | .
CCOC(=O)c1c(N)sc2c1CCS(=O)(=O)C2 | -7% | -12 | -0.3 | 3 | -34
CCN(Cc1ccccc1)Cc1cc(OC)cc(OC)c1 | -2% | 0 | . | -1 | -30
CC(=O)Nc1ccc(NC(=O)C2CC(=O)N=C(N)S2)cc1 (centres undefined) | . | -10 | -0.7 | 0 | -1
COc1ccc(CNc2nc3nc(C)cc(C)n3n2)cc1OC | -1% | -12 | -19 | 8 | -10
CC(C)(C)OC(=O)NNC(=O)Nc1ccccc1C(F)(F)F | 3% | -9 | -1.8 | 1 | .
CCOc1ccc(-n2cc(-c3ccccc3)c3c(=O)[nH]cnc32)cc1 | 64% | -5 | -0.8 | -14 | .
COc1cc2c(cc1OC)C(c1cccc(OC)c1OC)CC(=O)N2 (centres undefined) | -4% | -7 | -0.6 | 7 | -33
Cc1cc2[nH]c(=O)c(=O)[nH]c2cc1S(=O)(=O)Nc1cccc(F)c1 | . | -6 | -5.6 | . | .
O=C(c1ccoc1)N1CCC2(CCCN(Cc3ccc(F)c(F)c3)C2)C1 (centres undefined) | . | 10 | 0.2 | . | .
CCN(CC)CC(=O)N(CC(=O)Nc1c(C)cc(C)cc1C)C1CCCCC1 | 4% | -3 | . | 3 | -7
O=C(O)c1ccc(Sc2nnc(-c3cccc(Br)c3)o2)c([N+](=O)[O-])c1 | -11% | -18 | 9.8 | -2 | -22
Cc1cccc(C)c1NC(=O)CSCc1cccc(CSCC(=O)Nc2c(C)cccc2C)n1 | -11% | -1 | -1.8 | -10 | -7
